# Assay outcomes deposited in PubChem BioAssay by National Center for Advancing Translational Sciences (NCATS).
# Six1-Eya2 blk: blocks human Six1 binding to Eya2; Q15475+O00167; AlphaScreen GST-Six1/His-Eya2 binding, biochemical; stronger effect = lower value; control for the full effect not named in the record; activity change, % (concentration not given with the values); actives 0.56% (n = 360,000); in the data active = activity change below about -65%; inconclusive = about -30% to -65%; inactive = above about -30%; also: % is scaled to controls: 0 for no effect and ±100 for the full control effect
# Target sequence (O00167 whole entry, looked up): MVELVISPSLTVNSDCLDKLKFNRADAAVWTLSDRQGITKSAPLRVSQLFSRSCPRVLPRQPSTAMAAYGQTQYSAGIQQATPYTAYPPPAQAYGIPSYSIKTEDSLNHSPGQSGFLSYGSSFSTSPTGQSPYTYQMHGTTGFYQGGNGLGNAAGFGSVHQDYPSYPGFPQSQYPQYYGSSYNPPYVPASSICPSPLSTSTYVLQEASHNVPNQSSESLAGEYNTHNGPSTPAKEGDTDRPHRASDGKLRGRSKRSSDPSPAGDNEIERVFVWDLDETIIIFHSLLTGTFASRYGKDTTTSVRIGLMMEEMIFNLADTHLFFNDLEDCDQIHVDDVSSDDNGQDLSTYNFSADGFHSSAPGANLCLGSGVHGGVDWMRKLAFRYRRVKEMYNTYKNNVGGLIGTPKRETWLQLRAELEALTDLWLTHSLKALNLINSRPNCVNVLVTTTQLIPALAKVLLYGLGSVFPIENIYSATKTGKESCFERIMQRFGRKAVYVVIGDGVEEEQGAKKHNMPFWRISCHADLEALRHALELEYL
# Target sequence (Q15475 whole entry, looked up): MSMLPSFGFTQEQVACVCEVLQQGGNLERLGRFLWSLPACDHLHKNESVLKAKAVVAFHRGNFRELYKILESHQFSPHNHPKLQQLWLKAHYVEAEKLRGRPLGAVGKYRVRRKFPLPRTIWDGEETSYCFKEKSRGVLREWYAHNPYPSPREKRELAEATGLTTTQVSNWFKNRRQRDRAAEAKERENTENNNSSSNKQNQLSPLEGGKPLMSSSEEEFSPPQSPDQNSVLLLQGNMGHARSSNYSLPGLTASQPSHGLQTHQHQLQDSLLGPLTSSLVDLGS
#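 GST-Six1 + His-Eya2 (5X stock: 250/500 nM); Tris pH 8.0, 300 mM NaCl, 0.05% BSA, 0.02% Tween 20; GSH donor/Ni acceptor beads; 1 h 37 °C dark; AlphaScreen readout.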
# Sfp PPTase inh: inhibitors of Bacillus subtilis Sfp phosphopantetheinyl transferase; Potency, µM, inactives show max response, negative = inhibition, most hits filed as inhibitors; actives 3.5% (n = 310,000); Biochemical Sfp PPTase activity, qHTS; AID 1490; active = well fitted inhibition curve with a large enough effect; inconclusive = small, poorly fitted or top-dose-only effect, or another doubt; inactive = no such curve, though single readings can be large or run the other way;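 also: the enzyme is Sfp with the accession as filed and its product quenches rhodamine fluorescence; potency is read from the fitted curve at half-maximal effect; 0% = enzyme reaction without inhibitor and -100% = no enzyme wells; top concentration of the series not given in the record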
#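 Fluorescence-quenching assay: 15 nM Sfp-PPTase preincubated 15 min at room temperature with compound, then 5 uM rhodamine-CoA and 12.5 uM BHQ-2-labelled YbbR peptide added. Fluorescence (ex 525/em 598 nm) read at start and after 30 min; difference gives rate.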
# PINK1 modulator: PINK1 expression modulation. Potency, µM (titrated, usually from 76.6 µM), without a hit: at the highest dose activation (PINK1 increase), actives largely listed as activators. actives 0.2% (n = 410,000). PINK1 immunofluorescence, high-content cytometry, 24 h; active = well fitted activation curve with a large enough effect; inconclusive = small, poorly fitted or top-dose-only effect; inactive = flat fitted curve, though single readings scatter; cell line not stated here;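 also: potency is read from the fitted curve at half-maximal effect; % of control where 0% means no effect; nearly all actives have a fitted effect of over 65% in size; a mitochondrial uncoupler was the plate control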
#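 PINK1 protein, normally rapidly degraded, was detected by immunofluorescence after 24 hour compound treatment of a stable cell line. Titration data (5 concentrations) came from laser-scanning cytometry, with CCCP-treated wells as controls.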
# CtBP-E1A inh: inhibitors of CtBP/E1A interaction | AlphaScreen GST-E1A/His-CtBP binding, 1536-well; stronger effect = lower value; control for the full effect not named in the record | actives 0.49% (n = 340,000) | AID 651724 | activity change, % (no concentration beside the values); in the data active means activity change below about -65%; inconclusive means about -30% to -65%; inactive means above about -30%; also: % is scaled to controls: 0 for no effect and ±100 for the full control effect; compound concentration not given in the record
#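 Homogeneous bead-based format: GST-tagged E1A captured on glutathione donor beads, His-tagged CtBP on nickel acceptor beads; compounds precede bead addition by 2 h at 37 °C.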
# TRPV1 potentiator: enhances activation of the human vanilloid receptor TRPV1; Q8NER1; TRPV1-expressing cells, Fluo-8 calcium influx, capsaicin EC20 potentiation; host cell line not named in the record; control for the full effect not named in the record; potentiation, % at 8.33 µM; actives 0.02% (n = 320,000); AID 540277; active means potentiation above 80%; inconclusive means 30% to 80%; inactive means below 30%; also: 0% is about no effect
#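 Fluo-8 calcium influx in TRPV1-expressing cells, kinetic read (ex 480/em 520 nm). Compound added and read 3 min for agonist activity, followed by capsaicin at EC20 final and 2 min further read for enhancement.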
# D2 PAM: human D2 receptor positive allosteric modulation | P14416 | DiscoveRx D2 beta-arrestin cells, luminescence, 90 min; 100% = 57 uM dopamine signal | potentiation, % (no concentration beside the values) | actives 0.23% (n = 360,000); active = potentiation of 50% or more; inconclusive = 30% to 50%; inactive = 30% or less;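 also: compound concentration not given in the record; tested on top of an EC20 dose of dopamine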
#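 PathHunter D2 cells, attached overnight at 37 deg C, received compound in DMSO plus dopamine at EC20 (50 nM final) for 90 min at 37 deg C. Beta-arrestin recruitment was read as luminescence after 1 h with detection reagent at ambient temperature.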
# D2 ag: activates the human D2 dopamine receptor. actives 0.084% (n = 360,000). AID 624465. activation, % (no concentration beside the values). P14416. DiscoveRx PathHunter D2 beta-arrestin, luminescence, 90 min; 100% = 57 uM dopamine signal; in the data active = activation above about 40%; inconclusive = about 15% to 40%; inactive = below about 15%; also: compound concentration not given in the record; the text of the record calls up to 30% inactive
#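 DiscoveRx PathHunter D2 beta-arrestin cells (2,100/well) attached overnight, then compound-stimulated 90 min at 37 C in HBSS/10 mM HEPES/0.1% Tween-20 buffer; beta-galactosidase complementation read by luminescence after 1 h at ambient temperature. Dopamine 57 uM final (EC100) as control.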
# * hit, by the source's call; ? = inconclusive; · = no result given; & = joins results of further samples; [ ] = remark or other dose.
molecule,D2 PAM,CtBP-E1A inh,Sfp PPTase inh,D2 ag,PINK1 modulator,Six1-Eya2 blk,TRPV1 potentiator
COc1cccc(CC(NC(C)=O)C(=O)NC2CCN(S(=O)(=O)c3ccc(C)cc3)CC2)c1OC (stereo unspecified),-2.2,2.3,15.9%,4.7,-1.7%,-0.1,-3.5
O=C1CC[C@@H](CN(Cc2ccccn2)Cc2nc(Cc3cccc(C(F)(F)F)c3)no2)N1,-5.1,·,?,-2.6,-0.1%,8.7,-9.1
COc1ccccc1NC(=O)c1cc[n+]([O-])cc1,-18.2,·,15.3%,1.7,2.2%,13.7,-5.7
Cc1c(Cl)cccc1NC(=O)CCC(=O)NNC(=O)c1ccco1,-12.9,2.9,4.7%,-1.4,5.4%[38.3 µM],5.0,10.1
Cc1ccc2c(c1C)NC(C(=O)O)C1CC=CC21 (stereo unspecified),16.5,-5.7,44.7µM*,0.0,·,-25.6,-2.3&1.0
CCn1cc(S(=O)(=O)Nc2cc(F)ccc2C)cn1,-8.3,26.1,-2.2%,-21.0,-0.6%,8.0,10.0
CCN1CCSc2ccc(C(=O)NCc3ccccc3F)cc21,-9.8,-22.5,-27.0%,-4.6,1.5%,-21.1,-29.2
CCCC(=O)Nc1c(-c2ccccc2)c(=O)c(C)nn1-c1ccc(C)cc1,1.9,·,9.9%,1.4,0.0%,0.2,9.8
Cc1cc(C)c(OCCNC(=O)c2ccccc2Sc2ccccc2C#N)c(C)c1,-1.4,-6.8,15.5%,-5.0,1.6%,-1.8,3.4
CCOc1ccc(CC(=O)Nc2cccc(-c3ccc4nnc(C)n4n3)c2)cc1,1.6,-6.6,-5.4%,-0.9,4.8%,-19.2,-7.3
O=C(Nc1cc(C(F)(F)F)ccc1N1CCOCC1)C1CCCO1 (stereo unspecified),-1.5,21.0,·,-4.5,-2.3%,10.4,·
O=C(CN1C(=O)C2C3C=CC(C3)C2C1=O)N1CCc2ccccc2C1 (stereo unspecified),-8.6,6.4,-3.0%,-1.5,1.9%,-1.4,-11.5
Cc1cc(C(=O)NNc2ccc(C(C)C)cc2)n(C(C)(C)C)n1,-21.6,-1.3,8.3%,-11.3,-0.5%,-1.1,6.8
Cc1occc1-c1nnc(SCC(=O)NC2CC2)n1C,-12.0,-8.1,14.8%,-3.4,-0.1%,-1.7,-4.2
CC1CCCC(NC(=O)COC(=O)c2n[nH]c3ccccc23)C1C (stereo unspecified),-10.5,·,·,-3.6,9.7%,0.4,·
Cc1ccc(C(=O)Nc2ccc(N3CCN(C(=O)c4ccco4)CC3)cc2)c(Cl)c1,0.7,-5.7,11.9%,1.4,4.2%,-1.0,-0.2
CC(=O)Nc1ccc(NC(=O)CSc2nncn2C)cc1,-1.2,4.9,14.0%,-2.5,-1.9%,4.0,-1.9
O=C(COc1ccc(Cl)cc1Cl)OCn1nnc2ccccc2c1=O,-22.0,-0.4,-5.9%,-4.0,-1.1%,-2.6,12.2
O=C1CSC(c2ccccc2)N1CC(O)c1ccc([N+](=O)[O-])cc1 (stereo unspecified),-6.1,-3.3,13.4%,-2.1,0.1%,11.9,6.5
O=[N+]([O-])c1cc(C(F)(F)F)ccc1NCCCCNS(=O)(=O)c1ccc2ccccc2c1,-10.8,-20.6,4.2%,-2.1,1.0%[38.3 µM],-21.1,16.1
Cn1c(N)c(-c2nc3cccnc3n2C)sc1=S,-3.2,·,-1.7%,-4.6,1.6%,3.6,0.5
Cc1ccc(S(=O)(=O)N2CCC(C(=O)Nc3ccccc3N3CCCC3)CC2)cc1,-13.4,4.1,·,-3.0,-2.4%,-17.0,-16.6
CCN(C(=O)c1cc2c(=O)[nH]c3ccc(C)cc3c2s1)c1ccc(OC)cc1,-0.7,-12.0,7.8%,5.0,7.8%,8.7,-4.5
Cc1cccc(C)c1NC(=O)CN,1.1,7.1,17.2%,-0.4,-1.5%,-3.4,0.9
O=C(COc1ccccc1)NCC(c1ccco1)N1CCCCC1 (stereo unspecified),-25.1,-24.1,·,-3.7,2.0%,3.5,-32.3
COC(=O)c1ccc(CN2C(=O)NC(Cc3c[nH]c4ccccc34)C2=O)cc1 (stereo unspecified),-1.7,-10.7,15.5%,-5.5,4.3%,-15.3,4.0
O=C(COC(=O)CNC(=O)C1CCCCC1)Nc1ccc(Br)cc1Br,9.2,1.6,·,-3.6,0.4%,5.4,11.7
Cc1cc(C)cc(OCC(=O)Nc2ccccc2N2CCCCC2)c1,3.9,11.7,?,1.8,4.0%,11.0,-2.9
CC(C)CC(=O)N1CCC(O)(CS(=O)(=O)Cc2ccccc2)CC1,0.1,3.3,12.0%,1.8,-2.5%,1.3,·
CCOC(=O)c1ccc2c(c1)n(CCCS(=O)(=O)[O-])c(/C=C/c1ccc(Cl)cc1)[n+]2CC,2.0,-3.0,16.0%,0.2,1.7%,3.1,3.6
COc1ccc(Cl)cc1NC(=O)CN(C)C(=O)Cc1ccc(-c2ccccc2)cc1,-2.0,2.9,·,1.5,0.3%,-5.4,14.3
Cc1ccc(S(=O)(=O)Nc2nc(C)c(NC(=O)OCCCl)s2)cc1,?,-20.1,50.1µM*,10.4,0.2%,-0.1,-0.8
CC(C)(Oc1ccc(F)cc1)C(=O)OCC(=O)c1ccc(S(C)(=O)=O)cc1,-26.4,·,·,-9.4,-0.5%,-0.2,·
COc1ccc(CNC(=O)Nc2ccc(C)cc2C)cc1,-0.7,·,-8.0%,-4.1,0.2%,3.6,1.5
COc1ccc(NC(=O)C(Cc2ccccc2)n2cccc2)cc1 (stereo unspecified),-0.7,-21.9,12.4%,1.2,0.6%,-13.3,-2.2
COC(=O)[C@]1(CC(C)C)N[C@H](c2ccc(-c3ccccc3)cc2)[C@@H]2C(=O)N(C)C(=O)[C@@H]21,-8.9,-0.1,·,-2.9,0.0%,-8.1,·
Cn1c(=O)[nH]c(=O)c2c1nc(CN1CCN(c3ccccc3F)CC1)n2CCCc1ccccc1,-21.4,8.0,-3.5%,1.4,·,-1.8,1.2
COC(=O)Cc1ccc(OC2(C)CCN(Cc3ccc(-c4ccccn4)cc3)C2)cc1 (stereo unspecified),-17.5,-8.5,·,3.1,1.0%,-0.3,·
CCc1ccc(N2CC(C(=O)NCC(C)(C)N3CCOCC3)CC2=O)cc1 (stereo unspecified),-8.7,·,·,-3.8,3.1%,-3.2,1.6
Cc1cc(OCc2cc(C(=O)N(C)CC3CCOCC3)no2)cc(C)c1Cl,-3.1,-2.4,11.3%,1.5,0.0%,3.6,-6.4
O=C(Cn1cncn1)N/N=C/c1cccc(Cl)c1,-4.7,5.0,9.9%,-6.8,-0.5%,0.3,2.4
Oc1ccc(-c2csc(Nc3cccnc3)n2)cc1,-15.0,-2.2,?,0.4,?,-24.8,3.1
CCN(CC(=O)NC1CCS(=O)(=O)C1)S(=O)(=O)c1ccc(Cl)c(C(F)(F)F)c1 (stereo unspecified),-7.9,4.9,·,-2.5,-0.3%,8.7,-11.4
Cc1cc(C)n2nc(C(=O)OCC(=O)NNC(=O)c3ccccc3)nc2n1,0.3,5.7,·,4.6,2.6%,2.9,-5.3
COC(=O)c1ccc2[nH]c3c(c2c1)CC(C)CC3 (stereo unspecified),9.1,·,-1.5%,5.3,7.3%,-2.6,-10.6
CCN(CC)S(=O)(=O)c1ccc(N2CCOCC2)c(NC(=O)COc2ccccc2)c1,-6.1,4.9,-2.1%,3.6,-0.4%,-1.1,-5.7
CC(C)NC(=O)CC(=O)N/N=C\c1ccccc1C(=O)O,-2.2,2.7,17.7%,-5.5,1.7%,7.5,0.1
CCOc1cc(C(c2c(C)[nH][nH]c2=O)c2c(C)[nH][nH]c2=O)cc([N+](=O)[O-])c1O,-13.1,2.2,-4.0%,-9.4,2.1%,2.4,-10.3

# One compound at a time, as listed above. Screens in order: D2 PAM | CtBP-E1A inh | Sfp PPTase inh | D2 ag | PINK1 modulator | Six1-Eya2 blk | TRPV1 potentiator
# `CCN(C(=O)c1cc2c(=O)[nH]c3ccc(C)cc3c2s1)c1ccc(OC)cc1` is listed with -0.7 | -12.0 | 7.8% | 5.0 | 7.8% | 8.7 | -4.5
# `O=C(Cn1cncn1)N/N=C/c1cccc(Cl)c1` is listed with -4.7 | 5.0 | 9.9% | -6.8 | -0.5% | 0.3 | 2.4

# (continued)
molecule,D2 PAM,CtBP-E1A inh,Sfp PPTase inh,D2 ag,PINK1 modulator,Six1-Eya2 blk,TRPV1 potentiator
COc1cc(S(=O)(=O)N2CCN(C(=O)c3ccco3)CC2)c(OC)cc1C,-4.6,-10.8,-1.4%,-4.4,1.2%,6.2,1.4
C=CCNC(=S)Nc1c(N)n(C)c(=O)n(C)c1=O,-0.5,-2.1,?,-3.2,-1.4%,0.0,3.7
Cc1cccc(NC(=O)CSc2ncnc3c2oc2ccccc23)c1,1.7,-0.2,-16.3%,-4.6,3.0%,2.7,-4.2
O=C(Nc1ccccc1)c1csc(-c2ccccc2)n1,-4.2,-1.6,-0.2%,-2.8,-0.2%,7.9,22.6
O=C(CSc1ncn[nH]1)Nc1ccc([N+](=O)[O-])cc1Br,-4.5,0.0,-17.4%,-0.5,2.4%,-1.2,-3.8
O=C(CN(c1ccc(Cl)cc1)S(=O)(=O)c1ccccc1)N1CCN(c2ccccc2)CC1,-2.7,-9.5,16.3%,-3.1,·,-20.3,4.2
CCOc1cc(CNc2ccc3c(c2)OCCO3)cc(Br)c1OCC,20.0,?,1.4%,-1.1,3.7%,-66.6*,15.7
COc1ccc(-c2nc(CN3CCN(c4cc(C)nc(C)c4)CC3)c(C)o2)c2ccccc12,-5.3,-6.9,-1.6%,0.9,-0.6%,-9.9,8.7
O=C(CCNS(=O)(=O)c1ccc(Br)cc1)NCCCSc1ccccc1,-5.2,-3.9,·,2.2,-0.8%,2.0,15.8
COc1cccc(S(=O)(=O)NCC(=O)N2CCCCCC2)c1,?,·,0.5%,0.9,-0.2%,1.0,2.1
COc1ccc(C)cc1N(C)C(=O)c1coc(=O)c2ccccc12,-10.5,-2.5,6.4%,0.8,-5.1%,5.4,6.0
CCOc1ccc(C(=O)Nc2ccc(Cc3ccncc3)cc2)cc1Br,5.4,-22.5,5.6%,2.4,7.6%,5.6,8.6

# Rows are unselected, and some 3.7% of all compounds hit somewhere here.
